Screens as filed in PubChem BioAssay.
Cruzain noTriton: qHTS Assay for Promiscuous and Specific Inhibitors of Cruzain (without detergent); AID 1476, 2009; Potency, µM, without a hit: max response, negative = inhibition, hits mostly inhibitors; 2.3% of 200,000 active; purified cruzain, Z-FR-AMC fluorescence, no detergent; active means well fitted curve in the direction sought with a large enough effect; inconclusive means small, poorly fitted or top-dose-only effect, or another doubt; inactive means no such curve, though single readings can be large; an effect the other way counts as inactive or inconclusive;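 further: plate controls were enzyme without inhibitor for no effect and buffer without enzyme for full effect; nearly all actives have a fitted effect of over 40% in size; top concentration of the series not given in the record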
Target sequence (P25779 123-467 limits assumed): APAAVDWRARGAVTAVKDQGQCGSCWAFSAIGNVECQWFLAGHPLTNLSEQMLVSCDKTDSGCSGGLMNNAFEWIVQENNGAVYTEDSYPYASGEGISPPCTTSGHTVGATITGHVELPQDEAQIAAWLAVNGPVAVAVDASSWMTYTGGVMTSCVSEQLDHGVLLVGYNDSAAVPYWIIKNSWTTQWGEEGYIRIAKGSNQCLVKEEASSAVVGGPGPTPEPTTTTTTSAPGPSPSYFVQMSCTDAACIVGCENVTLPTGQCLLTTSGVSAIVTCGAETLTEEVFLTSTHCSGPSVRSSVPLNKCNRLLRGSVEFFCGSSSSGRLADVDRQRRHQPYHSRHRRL
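Detergent-free condition (0.00005% Triton X-100) in acetate buffer pH 5.5 with DTT. 1.5 nM enzyme and compound were pre-mixed 15 min, then 2 uM Z-FR-AMC substrate added; reaction progress from fluorescence change between first and third reads (60 s).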
NS1 inh: qHTS Assay for Inhibitors of Influenza NS1 Protein Function; S. cerevisiae slowed by influenza A NS1, growth recovery by OD600; Potency, µM (highest dose often 46.1 µM), inactives show at the top dose activity, positive = more growth; 0.4% of 270,000 active; AID 2326, 2010; further: actives are rising curves; nearly all actives have a fitted effect of over 50% in size
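Compounds were scored for reversing the slow growth caused by influenza A NS1 in S. cerevisiae, measured by optical density at 600 nm. Assay medium contained 2% galactose at pH 6.0; NS1-free yeast of the same strain were the positive control.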
Lassa entry inh: qHTS for Inhibitors of binding or entry into cells for Lassa Virus; Potency, µM (titrated, usually from 37.9 µM), inactives show top-dose activity change, negative = inhibition, actives largely listed as inhibitors; AID 540256, 2011; Lassa virus pseudotype entry inhibition, cell reporter; control for the full effect not named in the record; 1.2% of 300,000 active; active means well fitted inhibition curve with a large enough effect; inconclusive means small, poorly fitted or top-dose-only effect, or effect the other way; inactive means flat fitted curve, though single readings scatter; tested in HEK293 cells; further: on the % scale 0 is the no-effect control and ±100 the full control effect; nearly all actives have a fitted effect of over 50% in size; luciferase read-out
Cruzain inh Det: qHTS Assay for Promiscuous and Specific Inhibitors of Cruzain (with detergent); purified cruzain, Z-FR-AMC fluorescence, 0.01% Triton; Potency, µM, inactives show max response, negative = inhibition, actives largely listed as inhibitors; 0.43% of 200,000 active; active means well fitted curve in the direction sought with a large enough effect; inconclusive means small, poorly fitted or top-dose-only effect, or another doubt; inactive means no such curve, though single readings can be large; an effect the other way counts as inactive or inconclusive;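 further: plate controls were neutral wells for no effect and buffer without enzyme for full effect; nearly all actives have a fitted effect of over 40% in size; top concentration of the series not given in the record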
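Read-out: AMC fluorescence (360 nm excitation, 450 nm emission), four reads over 2 min, first-to-third difference used. Conditions: cruzain 1.5 nM, Z-FR-AMC 2 uM, pH 5.5 acetate, 5 mM DTT, 0.01% Triton X-100.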
RE007 growth inh: qHTS Assay for Inhibitors of the HIV-1 protein Vpr | 0.21% of 360,000 active | AID 651644, 2012 | S. pombe RE007 Vpr strain, BacTiter-Glo ATP luminescence, 24 h; control for the full effect not named in the record | Potency, µM (highest dose often 92.2 µM), without a hit: at the highest dose activity change, negative = less growth; active = well fitted falling curve with a large enough effect; inconclusive = small, poorly fitted or top-dose-only effect; inactive = no such curve, though single readings can be large or run the other way;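 further: on the % scale 0 is the no-effect control and ±100 the full control effect; nearly all actives have a fitted effect of over 50% in size; the assay follows cell death caused by Vpr and the record does not say whether a fall means rescue or toxicity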
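Fission yeast RE007 carrying one integrated HIV-1 vpr copy, seeded at OD 0.01 in PMG+AL medium with 23 nL pinned compound. Grown 24 h at 30 degrees; viability read by BacTiter-Glo luminescence after 5 min.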
SARS PLP yeast: qHTS of Yeast-based Assay for SARS-CoV PLP; Potency, µM (series often up to 32.9 µM), without a hit: at the top dose activity, positive = growth rescue; 0.19% of 330,000 active; S. cerevisiae expressing SARS-CoV PLpro, growth rescue; control for the full effect not named in the record; further: 0% is about no effect; nearly all actives have a fitted effect of over 55% in size; growth read by luminescence after 48 h
StopGo reporter: High Throughput Screening for Foot and Mouth Disease Virus Antivirals | human cells with a luciferase reporter of 2A StopGo recoding; control for the full effect not named in the record | Potency, µM (titrated, usually from 57.9 µM), for the others: at the top dose signal change, negative = less light | 1.2% of 410,000 active | AID 1159524, 2015; active = well fitted falling curve with a large enough effect; inconclusive = small, poorly fitted or top-dose-only effect; inactive = no such curve, though single readings can be large or run the other way; tested in HEK293T cells; further: on the % scale 0 is the no-effect control and ±100 the full control effect; nearly all actives have a fitted effect of over 45% in size; luciferase light after 4 h
Marburg entry inh: qHTS for inhibitors of binding or entry into cells for Marburg Virus; Marburg virus pseudotyped entry inhibition, cell reporter; control for the full effect not named in the record; about a third of the inactives were read at about 46 µM; Potency, µM (titrated, usually from 37.8 µM), for inactives: at the top dose activity change, negative = inhibition, actives largely listed as inhibitors; 1.8% of 300,000 active; active = well fitted inhibition curve with a large enough effect; inconclusive = small, poorly fitted or top-dose-only effect, or effect the other way; inactive = flat fitted curve, though single readings scatter; tested in HEK293 cells; about a fifth of its hits are not listed in these tables; further: on the % scale 0 is the no-effect control and ±100 the full control effect; luciferase read-out
* marks the source's active call; other numbers are inactive results; ? = inconclusive; / = not tested or not shown; & = joins results of further samples; [ ] = dose if it differs, or a comment. Unless noted, the call rests on the fitted dose curve; in most records, active means well fitted rising curve with a large enough effect; inconclusive means small, poorly fitted or top-dose-only effect; inactive means no such curve, though single readings can be large or run the other way. Potency means the concentration at half of the fitted maximal effect.

SMILES	Cruzain noTriton	NS1 inh	Lassa entry inh	Cruzain inh Det	RE007 growth inh	SARS PLP yeast	StopGo reporter	Marburg entry inh
O=C(COC(=O)C1=NNC(=O)CC1)NCCc1ccccc1	/	/	7%	/	-2%	?	-20%	-2%[46.1 µM]
COc1ccc(NS(=O)(=O)c2cccc3cccnc23)cc1	-8%	0%	4%	-0.9%	13%	1%	43%[activator]	-25%
Cc1cccc(CCNC(=O)c2cc3ccccn3n2)c1	-8%	/	16%[46.1 µM]	1.2%	/	/	39%[activator]	/
O=C(Cc1ccccc1)NC1CC(=O)N(c2ccc3c(c2)OCCO3)C1 (stereo unspecified)	-5%	/	5%[46.1 µM]	0.4%	/	/	11%	/
COc1ccc(C2=Nc3ccc(C)cc3C(c3ccccc3)N2CC(=O)NN)cc1 (stereo unspecified)	/	11%	-12%[46.1 µM]	/	-8%	-1%	-14%	?
Cn1nnnc1SCC(=O)N1CCN(c2cccc(Cl)c2)CC1	-2%	3%	-7%	5.2%	-15%	0%	0%	-17%[46.1 µM]
C=C(C)Cn1c(CCNC(=O)CCC)nc2ccccc21	16µM*	-7%	7%	-2.3%	18%	-6%	-6%	19%
COc1ccc(/C=N/N=C2\SC(CC(=O)O)C(=O)N2c2ccccc2)cc1 (stereo unspecified)	-6%	12%	3%	-9.5%	7%	-15%	-16%	1%
CCc1nnc(NC(=O)CCc2nc(C3=CCN(C)CC3)no2)s1	-2%	-8%	3%	0.0%	4%	5%	13%	12%
Cc1ccc2c(c1)CCCN2C(=O)c1ccc2c(c1)OCO2	6%	-37%	4%	-2.8%	-7%	-7%	-8%	-1%
CN(C)CCCN(C(=O)c1ccc(Br)s1)c1nc2cc3c(cc2s1)OCCO3	/	/	?	/	-12%	/	13%	?
COc1ccccc1OCc1ccc(C(=O)NN)o1	/	4%	/	/	-4%	-1%	5%	/
CC(C)(C)OC(=O)C(Cc1ccc(OC(C)(C)C)cc1)NC(=O)CNC(=O)CNC(=O)OCc1ccccc1 (stereo unspecified)	?	0%	-29%	-8.8%	-1%	10%	-27%	-18%
Cc1nc2nc3c(cn2n1)C(=O)CC(C)(C)C3	-3%	-3%	-12%	0.0%	27%	0%	10%	-2%
CC(C)C(NS(=O)(=O)c1cccc2nsnc12)C(=O)Nc1nccs1 (stereo unspecified)	/	-4%	/	/	-4%	1%	3%	/
COc1ccc(-c2nnc(N)s2)cc1	-9%	-7%	15%	2.8%	-11%	-2%	43%[activator]	11%
Cc1ccc(-c2nn(-c3ccccc3)cc2C(=O)N2CCOCC2)cc1C	/	3%	0%[46.1 µM]	/	-20%	-1%	-13%	?
COc1ccc(-c2c[n+]3c(n2-c2c(C)n(C)n(-c4ccccc4)c2=O)CCCCC3)cc1	/	/	-9%	/	-29%	-2%	27%	?
Cc1onc(-c2ccccc2Cl)c1C(=O)Nc1ccccc1C(N)=O	1%	-29%	-5%	-1.0%	5%	-1%	11µM*	-19%
O=C(c1ccc(Cl)cc1)N1CCN(C(=O)c2ccco2)CC1	-1%	-2%	21%	7.0%	-17%	-6%	-10%	19%[46.1 µM]
NC(=O)C1CCCN(C(=S)Nc2cccc3ccccc23)C1 (stereo unspecified)	-3%	2%	?	-2.1%	-17%	25%	10%	?
COc1cc(CCCN2C(=S)NC[C@@H]2c2ccccc2)cc(OC)c1OC	/	1%	/	/	4%	0%	62%[activator]	/
Cn1c(N)c(C(=O)COC(=O)c2ccc([N+](=O)[O-])o2)c(=O)n(C)c1=O	/	2%	9%	/	-9%	-3%	-21%	6%[46.1 µM]
CCOC(=O)Cn1c(=O)n(-c2ccccc2OC)c2nc(-c3cccc(F)c3)nc(C(N)=O)c21	?	/	-20%[46.1 µM]	-8.2%	/	/	-18%	/
CCOC(=O)C1=C(O)C(=O)NC(c2ccccc2)=C(OC2CCCCC2)C1	-6%	12%	3%	-6.9%	-17%	7%	-10%	-8%
CCn1ccc2cc(S(=O)(=O)N3CCC(C(=O)NCCc4ccccc4Cl)CC3)ccc21	?	/	?	-2.8%	/	/	-13%	/
Cc1cc(OCC(=O)Nc2cc(S(=O)(=O)N3CCOCC3)ccc2N2CCCC2)ccc1C(C)C	/	/	?	/	-13%	-7%	1%	?
CCn1cc(/C=c2/sc3n(c2=O)C2c4ccccc4OC(C)(N=3)C2C(=O)OC)c(C)n1 (stereo unspecified)	/	/	10%[46.1 µM]	/	3%	-1%	-11%	-7%[46.1 µM]
COc1ccc(O)c(-c2cc(C(F)(F)C(F)F)nc(-c3ccccc3)n2)c1	0%	6%	-18%	-1.4%	-1%	-2%	?	-10%
COc1cccc(-n2cnc3sc(C)cc3c2=O)c1	/	-3%	-8%	/	1%	0%	21%	19%[46.1 µM]
CSc1cccc(NC(=S)Nc2ccc(F)cc2)c1	/	3%	9%[46.1 µM]	/	-10%	0%	49%[activator]	7%[46.1 µM]
COc1ccc(-c2cc(C(=O)Nc3c(C)nn(Cc4ccccc4Cl)c3C)no2)cc1OC	?	-3%	-1%	-0.7%	6%	4%	?	-6%
CCC(C)(C)c1ccc(Oc2ccc(N)cc2)cc1	/	8%	?	/	45%	-19%	1.1µM*	4µM*
Cc1csc(C(=O)O)c1-n1cccc1	-4%	5%	-5%	1.6%	22%	-5%	0%	-17%
O=C(c1ccc(O)cc1)c1ccc(O)cc1O	/	-4%	?	/	-2%	-2%	23%	?
COc1ccccc1-c1noc2ncnc(Nc3ccccc3C)c12	/	-44%	/	/	-13%	-4%	-20%	/
Cc1cccc(Cn2c(SCCO)nc3c2c(=O)n(C)c(=O)n3C)c1	2%	-6%	-2%	-2.0%	4%	1%	0%	-10%
COc1ccccc1NC(=O)c1ccc(Cl)c(S(=O)(=O)N2CCCCC2)c1	/	-2%	-7%	/	1%	-2%	?	?
O=C1N(c2nncs2)CCN1[N+](=O)[O-]	/	3%	/	/	21%	-2%	0%	/
N#C/C(=C\c1ccc(-c2ccc(Br)cc2)o1)C(=O)Nc1ccccc1O	15%	/	-2%[46.1 µM]	-0.4%	/	/	-3%	/
CCN1CCN(S(=O)(=O)c2c[nH]c(C(=O)OC)c2)CC1	/	-3%	/	/	6%	-2%	0%	/
CCN(CC1CCCN(CCc2cccc(OC)c2)C1)C(=O)c1ccoc1 (stereo unspecified)	/	0%	3%	/	-7%	?	-22%	14%
COc1ccc2cc(CN(CC3CCCO3)S(=O)(=O)c3ccccc3Cl)c(=O)[nH]c2c1 (stereo unspecified)	?	2%	-24%	-1.8%	10%	8%	/	-12%
C=C1CCN(C(Cc2ccccc2)C(=O)OC)S(=O)(=O)c2ccc(F)cc21 (stereo unspecified)	/	-40%	/	/	5%	-2%	3%	/
CCOC(=O)N/N=C/c1ccc(N(CC)CC)cc1O	2%	-23%	4.5µM*	-12%	-10%	-21%	32%[activator]	?
COc1cccc(C(=O)OCC(=O)NCC2CCCO2)c1 (stereo unspecified)	/	/	11%	/	8%	4%	-6%	?
CC(=O)c1cccc(NC(=O)c2cccn2-c2nnc(N3CCCCC3)s2)c1	-7%	/	12%[46.1 µM]	-0.7%	/	/	19%	/
COc1ccc(-c2cc(=O)oc3c(C)c(OC(=O)c4cccs4)ccc23)cc1	-24%	3%	?	-1.3%	-6%	3%	-23%	?
Cc1ccccc1NC(=O)CSc1nnc(C)c(=O)[nH]1	2%	/	3%&1%[46.1 µM]	-1.4%	2%	0%	-10%&-21%	7%&-9%[46.1 µM]
Cc1ccc(NS(=O)(=O)c2ccc(NC(=O)c3ccccc3C(=O)O)cc2)c(C)c1	/	/	20%[46.1 µM]	/	3%	/	1%	1%[46.1 µM]
CCCCCC(=O)Nc1ccc(N2CCOCC2)c(S(=O)(=O)Nc2ccc(OC)cc2)c1	/	/	?	/	3%	/	38%[activator]	-8%[46.1 µM]
CC1=NNC(=O)C1C(c1ccc(Cl)cc1)C(C#N)C#N (stereo unspecified)	/	-5%	6%	/	-21%	0%	-24%	0%[14.2 µM]
Cc1cc(NC(=O)c2cc(-c3cccs3)on2)nn1Cc1ccc(Cl)cc1	?	-5%	-14%	-3.2%	-8%	4%	0%	?
COc1ccc(/C=C2\Sc3ccc(C(=O)N4CCOCC4)cc3N(C)C2=O)cc1	/	10%	/	/	-4%	23%	-3%	/
CCc1ccc(NC(=O)c2ccc(CNS(=O)(=O)c3ccc4c(c3)C(C)(C)C(=O)N4C)cc2)cc1	?	/	-17%[46.1 µM]	-4.5%	/	/	?	/
COC(=O)c1cn(C(=O)c2ccc(C)cc2C)c2ccccc12	/	0%	?	/	8%	5%	-13%	?
O=C(O)CSC(C(=O)Nc1ccc(Br)cc1)c1ccccc1 (stereo unspecified)	/	-4%	11%[46.1 µM]	/	4%	-2%	11%	4%[46.1 µM]
CC(C)c1ccc(CNc2nc(-c3ccco3)nn2S(=O)(=O)c2ccc3ccccc3c2)cc1	10µM*	/	0%[46.1 µM]	0.2%	/	/	24%	23%[46.1 µM]
COc1ccc(NC(=O)C2=CC(c3ccc(OC)cc3)=NS(=O)(=O)N2C)cc1	/	-33%	/	/	-11%	-4%	-17%	/
Cc1ccc(-c2c[n+](CC(=O)Nc3nc(-c4ccccc4)cs3)c3n2CCC3)cc1	/	0%	0%	/	45%	3%	-11%	-23%[46.1 µM]
O=C(COC(=O)/C=C/c1ccccc1[N+](=O)[O-])NNC(=O)c1ccc(F)cc1	/	/	6%	/	8%	-5%	1%	5%
C/C(=N\OCc1nc2ccccc2c(=O)n1/N=C/c1cc(C)cc([N+](=O)[O-])c1O)c1ccccc1	/	-38%	/	/	12%	6%	-20%	/
CCCCN(C)Cc1c(C)[nH]c2ccc(Cl)cc2c1=O	-4%	-5%	22%	2.7%	-17%	4%	/	-14%
